# Yeast UUG start = modulators of yeast start codon fidelity, primary screen, whole organism, S. cerevisiae, single point, plate reader; S. cerevisiae UUG-firefly luciferase reporter, luminescence/redox ratio; activity score, % at 18.7 µM; hit rate 0.13% among 350,000; AID 602363, 2012;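 active means replicate mean at a twofold rise or more, about +100% in these data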;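 further: firefly luciferase made from a UUG start codon reports start codon fidelity; reporter light over untreated wells divided by growth signal over untreated wells; some hits fall short of that in this replicate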
# CSC inhib = cancer stem cell viability inhibitors, primary screen, luminescence | inhibition, % at 7.5 µM | hit rate 1.1% among 300,000 | AID 2717, 2010 | cancer stem cell-like cells viability;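 active means mean at 75% or more and at least half the replicates too; inconclusive means mean and replicates disagree; tested in HMLE shEcad cells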;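 further: 0% = median of negative and 100% = median of positive control wells; the first replicate is given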
# PABP FP inh = PABP poly(A) RNA binding inhibitors, primary screen, biochemical, fluorescence polarization, uHTS; AID 2014, 2009; Polyadenylate-binding protein 1 (Homo sapiens), P11940; inhibition, % at 35 µM; hit rate 1% among 290,000;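 active means 50% or more with normal probe brightness, or confirmed in later tests; inconclusive means above 50% with abnormal brightness, or retests that disagree; inactive means below 50% or failed in later tests; about a fifth of its hits are not listed in these tables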;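 further: calls also rest on retests at 20 µM and on dose response follow-up; controls were probe without protein and protein plus probe with vehicle; some compounds called inactive have numbers as strong as hits; many hits fall short of the cut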
# Target sequence (P11940 whole entry, looked up): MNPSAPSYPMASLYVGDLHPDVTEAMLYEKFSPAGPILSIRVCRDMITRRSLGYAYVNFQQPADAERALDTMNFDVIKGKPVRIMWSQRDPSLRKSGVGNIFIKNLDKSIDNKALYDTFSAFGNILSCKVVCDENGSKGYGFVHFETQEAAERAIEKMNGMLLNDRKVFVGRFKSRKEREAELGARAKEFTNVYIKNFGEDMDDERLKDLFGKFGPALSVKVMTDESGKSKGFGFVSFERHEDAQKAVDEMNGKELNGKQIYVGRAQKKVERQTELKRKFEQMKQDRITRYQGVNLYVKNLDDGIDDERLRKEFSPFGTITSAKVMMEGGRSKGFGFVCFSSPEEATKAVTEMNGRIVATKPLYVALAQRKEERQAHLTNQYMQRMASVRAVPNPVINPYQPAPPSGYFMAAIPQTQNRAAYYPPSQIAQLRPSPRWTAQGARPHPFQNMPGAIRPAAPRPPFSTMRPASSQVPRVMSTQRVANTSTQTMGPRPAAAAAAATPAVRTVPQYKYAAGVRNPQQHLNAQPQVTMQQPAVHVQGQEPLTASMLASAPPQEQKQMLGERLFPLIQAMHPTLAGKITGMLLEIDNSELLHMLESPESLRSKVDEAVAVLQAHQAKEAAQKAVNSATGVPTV
# MT1-MMP act inh = blockers of MT1-MMP proenzyme processing, primary screen, HT1080 RFP-PRO-GFP cells, GFP/RFP fluorescence; GFP/RFP ratio change, % at 20 µM; AID 651647, 2012; GFP/RFP ratio fluorescence, overnight; percent of plate control window, DMSO zero; hit rate 0.061% among 360,000;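 active means GFP/RFP ratio change of at least 30% with cell ATP level not reduced by more than half and red fluorescence within 50% of control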; further: strong numbers were not always called active
#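 Test system: HT1080 cells expressing an RFP-PRO-GFP fluorescent reporter construct / Compound dosing: single-point 20 µM compound, 1% DMSO / Schedule: cells overnight before dosing, compound overnight, 37 °C, 5% CO2 / Evaluation: GFP/RFP fluorescence ratio / Control set: DMSO and RFP-L50D-GFP cell wells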
# eIF4H FP inh = human eIF4H binding inhibitors, primary screen, translation initiation inhibitor project, biochemical, uHTS, fluorescence polarization; hit rate 0.94% among 290,000; AID 2012, 2009; eIF4H fluorescence polarization binding assay; inhibition, % at 35 µM; Eukaryotic translation initiation factor 4H (Homo sapiens), Q15056;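 active means 50% or more with normal probe brightness, or confirmed in later tests; inconclusive means above 50% with abnormal brightness, or retests that disagree; inactive means below 50% or failed in later tests; about a fifth of its hits are not listed in these tables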;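 further: calls also rest on retests at 20 µM and on dose response follow-up; 0% = protein and probe with vehicle and 100% = probe without protein; strong numbers were not always called active; many hits fall short of the cut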
# Env fusion inh = inhibitors of HIV-1 Env-driven cell-cell fusion, primary screen, HeLa-JRFL effector, CEM21 target cells, luciferase | inhibition, % at 12.3 µM | hit rate 1.1% among 360,000 | AID 651610, 2012;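 active means mean replicate inhibition score of at least 50 and every replicate individually at or above 50; inconclusive means only one of the two criteria met; inactive means mean below 50 and not all replicates reaching 50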;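 further: 0% = plate neutral controls and 100% = maraviroc near 300 nM; one replicate is shown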
# Rce1 inh = yeast Rce1p protease inhibitors, primary screen, biochemical, fluorescence, cell-free homogeneous; CAAX prenyl protease 2 (Saccharomyces cerevisiae (strain ATCC 204508 / S288c)), Q03530; yeast membranes, quenched prenylated peptide cleavage fluorescence; calls only; hit rate 0.27% among 290,000; AID 2563, 2010;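 active means fall in fluorescence gain of 50% or more versus controls, with final raw signal at or below 3038400; inconclusive means same 50% fall but final raw signal above 3038400; inactive means fall in fluorescence gain under 50%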;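 further: plate controls were neutral control wells for no effect and wells lacking membranes for full effect; tested at 10 µM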
# Target sequence (Q03530 whole entry, looked up): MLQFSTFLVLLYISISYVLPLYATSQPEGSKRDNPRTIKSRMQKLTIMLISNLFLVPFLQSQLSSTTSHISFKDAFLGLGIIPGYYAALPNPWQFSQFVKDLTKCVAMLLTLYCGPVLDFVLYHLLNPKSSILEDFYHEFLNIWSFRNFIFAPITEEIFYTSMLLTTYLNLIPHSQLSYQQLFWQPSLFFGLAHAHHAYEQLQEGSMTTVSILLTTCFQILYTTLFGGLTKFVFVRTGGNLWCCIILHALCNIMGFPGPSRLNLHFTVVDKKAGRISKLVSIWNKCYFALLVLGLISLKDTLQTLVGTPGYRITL
# MT1-MMP act inh RFP = further read-out of MT1-MMP act inh, marked with its call; RFP signal change, %; measured here: RFP expression control read;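 0 = vehicle wells; hits needed this value within 50% of zero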
# * marks the source's active call; other numbers are inactive results; i = inactive; u = inconclusive; x = no result given; + = active, no number.
SMILES,Yeast UUG start,CSC inhib,PABP FP inh,MT1-MMP act inh,MT1-MMP act inh RFP,eIF4H FP inh,Env fusion inh,Rce1 inh
O=C(CCc1ccccc1)N[C@@H]1c2ccccc2CC[C@H]1OCc1ccccc1,-4,x,x,-4,-6,x,-24,x
Cc1n[nH]c(=S)n1/N=C/c1ccccc1OCc1ccc(Cl)cc1Cl,x,-6,15,0,-1,0,x,i
CCOc1ccc(-c2nnn(CC(=O)NCCc3c[nH]c4ccccc34)n2)cc1,-17,14,5,3,4,-6,-17,i
O=C(NN=C1CCCCC1)NC1CCCCC1,x,6,9,4,-1,2,-9,i
CCOC(=O)c1ccc(N2C(=O)C=CC2=O)cc1,0,47,17,19,35,-6,x,i
CCOC(=O)N1CCN(C(=S)Nc2ccc3nc(N4CCN(CC)CC4)cc(C)c3c2)CC1,-7,24,7,-1,2,6,x,i
COc1ccc(CCNC(=O)COC(=O)c2cc(S(=O)(=O)N3CCOCC3)ccc2C)cc1OC,13,x,x,3,-2,x,7,x
O=C(NC(Cc1ccccc1)C(=O)O)/C(=C\c1ccccc1F)NC(=O)c1ccccc1 (centres undefined),x,7,0,-1,3,-9,-6,i
Nc1c(-c2cccc([N+](=O)[O-])c2)nc2ccccn12,x,-5,11,4,6,10,-17,i
COc1ccc(NC(=O)N2C3CCCC2CC(NC(=O)c2ccccc2)C3)cc1 (centres undefined),-11,11,-5,-4,-2,1,-6,i
CN1c2ccc(C=O)c3c(C=O)ccc(c23)N(C)C1(C)C,-27,7,u,-6,24,u,37,+
COc1ccc(C)cc1NC(=O)CCCN1C(=S)NC(C)(C)CC1C (centres undefined),-40,11,0,-3,3,-3,x,i
COc1ccc(OC)c(-c2cc(C(=O)NCc3ccc(Cl)cc3)no2)c1,x,-4,-9,3,7,-2,-56,i
Cc1ccccc1NC(=O)N1CCN(C(=O)c2ccco2)CC1,x,-13,-12,-1,6,6,5,x
CCCNC(=O)c1onc(CSc2ccncc2)c1C(=O)NCCC,-13,0,4,-3,5,-4,13,i
COc1ccc(/C=C2/C(=O)ON=C2C)cc1Cl,-13,-6,9,3,5,3,5,i
CCc1cc(=O)oc2cc(C)cc(OC(C)C(=O)NCC(O)c3ccccc3)c12 (centres undefined),-7,-12,-5,4,4,13,-18,i
Cn1cnc(S(=O)(=O)N2CCN(c3ccccc3)CC2)c1,-8,3,10,1,4,1,-3,i
CC(OC(=O)c1cnccn1)C(=O)Nc1nc(-c2cccc([N+](=O)[O-])c2)cs1 (centres undefined),-35,x,x,6,3,x,-11,x
COc1ccc(NS(=O)(=O)c2cccc(Cl)c2)cc1S(=O)(=O)N1CCCCC1,-10,-1,8,-1,-10,8,x,i
COc1ccc(C(=O)Nc2cc(Cl)ccc2C(=O)O)cc1,x,3,5,-7,-4,-8,11,i
CN(CC(=O)Nc1cccc(F)c1)C(=O)c1ccc2c(c1)CC(c1ccccc1)OC2=O (centres undefined),-19,x,x,-5,-16,x,16,x
Cn1c(CCNC(=O)c2ccccc2Cl)n[nH]c1=S,-9,-4,8,3,1,15,x,i
COc1cccc(C(=O)Nc2nnc(-c3ccccc3)s2)c1,-6,-12,2,x,x,-6,-29,i
Cc1cccc(C2c3[nH]c4ccccc4c3CCN2C(=O)c2ccc(=O)[nH]c2)n1 (centres undefined),x,3,5,3,7,5,7,i

# Some entries already given with just eIF4H FP inh, CSC inhib and MT1-MMP act inh RFP:
structure	eIF4H FP inh	CSC inhib	MT1-MMP act inh RFP
O=C(CCc1ccccc1)N[C@@H]1c2ccccc2CC[C@H]1OCc1ccccc1	x	x	-6
CCOC(=O)N1CCN(C(=S)Nc2ccc3nc(N4CCN(CC)CC4)cc(C)c3c2)CC1	6	24	2

# (continued)
SMILES,Yeast UUG start,CSC inhib,PABP FP inh,MT1-MMP act inh,MT1-MMP act inh RFP,eIF4H FP inh,Env fusion inh,Rce1 inh
CC(=O)Nc1nc2ccccc2n1CCN1CCOCC1,x,x,-9,-2,2,0,-12,i
O=C(NCCN1C(=O)S/C(=C\c2ccc(OC(F)F)cc2)C1=O)[C@@H]1CCCN1C(=O)c1cccs1,x,-15,-2,-3,-6,-5,3,i
C=CCn1c(CNC(=O)c2ccccc2C)nnc1SCC(=O)NC1CCCC1,-11,3,-1,-4,2,-2,-2,x
CCOC(=O)Cn1nnnc1C(CC)N(Cc1cccs1)Cc1cc2ccc(OC)cc2[nH]c1=O (centres undefined),-1,4,5,-3,-3,-14,x,i
Cc1c(O)c2ccccc2n(-c2ccccc2)c1=O,-10,-17,x,3,4,x,-5,i
O=C(Cn1cc2c(n1)CCCC2)NCCCN1CCN(c2ccccc2F)CC1,-7,-7,-3,4,6,3,-1,i
COc1cccc(-c2cn(-c3cccc(C(F)(F)F)c3)c(=S)[nH]2)c1,7,1,0,-7,-6,1,6,i
COc1cccc(CNC(=O)C2CCN(c3ncnc4c3nc3n4CCCCC3)CC2)c1,-14,-11,-4,6,-3,5,0,i
CN1C(=O)/C(=C/c2ccc(OCc3cccc(F)c3)cc2)NC1=S,-17,-5,8,-2,-11,-6,-2,x
Cc1nn(CCCC(=O)NCc2ccc(F)cc2)c(=O)c2nccn12,-8,-5,1,-4,5,-2,13,i
O=c1[nH]c(C2CCCN(S(=O)(=O)c3ccccc3)C2)nc2c1nnn2Cc1cccc(Cl)c1 (centres undefined),-8,-1,0,1,-7,-12,2,i
CCS(=O)(=O)N1CCN(S(=O)(=O)c2ccccc2)CC1,-11,-7,-16,-4,-6,0,-105,i
COc1ccc(-c2ccc(C(=O)NCc3ccc(C(F)(F)F)cc3)c3occc23)c(C)c1,9,x,x,-5,-23,x,39,x
CC(=O)C1C(c2ccc(F)c(F)c2)NC(=O)NC1(O)C(F)(F)F (centres undefined),3,11,2,5,-2,0,-76,i
CC(=O)c1csc(CS(=O)(=O)c2ccccn2)n1,x,-5,-7,1,6,6,-5,i
O=C(CCSc1ccccc1)NC1CCCC1,x,-9,7,-2,5,-2,-29,i
CC1C(=O)N(Cc2ccccc2)c2ccccc2N1C(=O)c1ccccc1 (centres undefined),-21,-2,0,-7,-9,-8,10,i
O=C(CCCc1nc(-c2ccc(Cl)cc2)no1)Nc1cccnc1,-21,-1,4,6,-18,7,61*,i
Cc1cc(OC(C)C(=O)N(Cc2cccs2)C2CCS(=O)(=O)C2)ccc1Cl (centres undefined),13,x,-7,4,-2,-6,u,i
O=C(N/N=C/C=N/NC(=O)c1ccco1)c1ccco1,-5,-8,1,1,1,-7,3,i
O=C(COc1ccccc1)N1CCN(c2ncccn2)CC1,x,x,3,3,3,3,16,i
CCc1c(C2(O)CCCCC2)[nH]c2ccc(C(F)(F)F)cc12,4,84*,3,5,0,-7,17,i
Cc1ccc(C)c(CN2CCC(n3nccc3NC(=O)CCCc3ccccc3)CC2)c1,-1,0,4,4,-3,-5,2,i
C/C(CC1CC(C)OC1=O)=N\NC(N)=S (centres undefined),x,-17,2,-4,-6,-5,7,i
O=C(Nc1ccccc1C(F)(F)F)N1CCC(N2CCCCC2)CC1,x,2,-6,3,4,-12,x,i
# Carrying on.
SMILES,Yeast UUG start,CSC inhib,PABP FP inh,MT1-MMP act inh,MT1-MMP act inh RFP,eIF4H FP inh,Env fusion inh,Rce1 inh
CCN=C1SC(C(=O)Nc2ccccc2)CC(=O)N1CC (centres undefined),x,-10,-6,1,4,-12,x,i
CN(C)CCNC(=O)/C(=N\O)c1ccccn1,x,9,3,0,3,-1,-6,i
CN(Cc1ccccc1)C(=O)c1cnc(Cc2c[nH]c3ccccc23)c(I)c1,-5,x,x,0,-11,x,-34,x
O=C(O)C1(c2ccccc2)CCN(S(=O)(=O)c2cccs2)CC1,-20,-4,-8,-2,2,-11,-8,i
CC(C)OCCCN1CN(S(=O)(=O)c2ccc(Cl)cc2)c2nc3ccccc3nc21,1,-4,4,1,1,-1,x,i
COc1ccc(CC(=O)NNC(=S)NCC2CC2)cc1OC,-19,-5,-7,7,-3,7,2,i
NC(=O)c1ccsc1NC(=O)c1ccc([N+](=O)[O-])o1,-5,55,x,8,-3,x,-147,x
CN(CC(=O)Nc1ccc(SC(F)F)cc1)C1CCCCC1,x,-9,4,-2,1,-5,3,i
CC(CCN1CCN(c2ccccc2)CC1)c1ccccc1 (centres undefined),-6,-4,3,2,-2,-2,-8,i
COC(=O)C[N+](C)(C)CC#Cc1ccccc1,x,1,0,3,6,1,3,i
CCCOc1ccc(/C=N/NC(=O)c2c(-c3ccccc3)noc2C)cc1OC,-9,1,-13,1,-5,-8,-1,x
COc1cccc2cc(C(=O)C3=C(O)C(=O)N(CCN4CCOCC4)C3c3ccc(C(C)(C)C)cc3)oc12 (centres undefined),-15,-6,-3,-2,6,-4,26,i
O=C1C2C3C=CC(CC3)C2C(=O)N1c1ccc(Br)cc1 (centres undefined),-2,x,x,0,-3,x,24,x
CCN(CC)S(=O)(=O)c1cccc(NC(=O)c2ccc(Sc3nncn3C)c([N+](=O)[O-])c2)c1,-25,-16,-7,-1,-6,5,3,i
COc1ccc(Nc2nc(N/N=C/c3ccc(N(C)C)cc3)nc(C)c2[N+](=O)[O-])cc1,x,6,-6,5,-4,-7,x,i
N=c1c2c3c(sc2ncn1CCCO)CCCC3,-12,-6,0,0,7,7,x,i

# By substructure: the entries above with a Cl atom
SMILES,Yeast UUG start,CSC inhib,PABP FP inh,MT1-MMP act inh,MT1-MMP act inh RFP,eIF4H FP inh,Env fusion inh,Rce1 inh
Cc1n[nH]c(=S)n1/N=C/c1ccccc1OCc1ccc(Cl)cc1Cl,x,-6,15,0,-1,0,x,i
COc1ccc(OC)c(-c2cc(C(=O)NCc3ccc(Cl)cc3)no2)c1,x,-4,-9,3,7,-2,-56,i
COc1ccc(/C=C2/C(=O)ON=C2C)cc1Cl,-13,-6,9,3,5,3,5,i
COc1ccc(NS(=O)(=O)c2cccc(Cl)c2)cc1S(=O)(=O)N1CCCCC1,-10,-1,8,-1,-10,8,x,i
COc1ccc(C(=O)Nc2cc(Cl)ccc2C(=O)O)cc1,x,3,5,-7,-4,-8,11,i
Cn1c(CCNC(=O)c2ccccc2Cl)n[nH]c1=S,-9,-4,8,3,1,15,x,i
O=c1[nH]c(C2CCCN(S(=O)(=O)c3ccccc3)C2)nc2c1nnn2Cc1cccc(Cl)c1 (centres undefined),-8,-1,0,1,-7,-12,2,i
O=C(CCCc1nc(-c2ccc(Cl)cc2)no1)Nc1cccnc1,-21,-1,4,6,-18,7,61*,i
Cc1cc(OC(C)C(=O)N(Cc2cccs2)C2CCS(=O)(=O)C2)ccc1Cl (centres undefined),13,x,-7,4,-2,-6,u,i
CC(C)OCCCN1CN(S(=O)(=O)c2ccc(Cl)cc2)c2nc3ccccc3nc21,1,-4,4,1,1,-1,x,i

# Random draw from the library; overall some 2.9% were active at least once.
